Compound activity deposited in PubChem by National Center for Advancing Translational Sciences (NCATS).
Vaccinia mCherry = inhibitors of vaccinia virus infection (mCherry reporter signal); Vaccinia virus mCherry reporter infection, fluorescence; about a quarter of the inactives have no number; Potency, µM (doses to about 36.5 µM), inactives show top-dose activity change, negative = inhibition, actives largely listed as inhibitors; 0.63% of 310,000 active; AID 720579; active = well fitted inhibition curve with a large enough effect; inconclusive = small, poorly fitted or top-dose-only effect; inactive = no such curve, though single readings can be large or run the other way; tested in A549 cells; note: nearly all actives have a fitted effect of over 35% in size; inactives centre near -10
Vaccinia Venus = inhibitors of vaccinia virus (Venus reporter); 0.46% of 330,000 active; Vaccinia virus Venus reporter expression, fluorescence; Potency, µM (highest dose often 36.5 µM), without a hit: top-dose activity change, negative = inhibition, actives largely listed as inhibitors; active means well fitted inhibition curve with a large enough effect; inconclusive means small, poorly fitted or top-dose-only effect; inactive means no such curve, though single readings can be large or run the other way; tested in A549 cells; note: nearly all actives have a fitted effect of over 30% in size; inactives centre near -10
An asterisk follows results filed as active; i = inactive; ? = inconclusive; . = no result given; & = joins results of further samples; [ ] = another dose, or the depositor's remark. % is set by controls: 0 for no effect and ±100 for the full control effect; potency is the fitted concentration of half-maximal effect.

| SMILES | Vaccinia mCherry | Vaccinia Venus |
| --- | --- | --- |
| Cc1ccc(-n2nc(C(=O)Nc3cccc(C#N)c3)c3c4ccccc4n(C)c3c2=O)cc1 | -12% | -2% |
| O=C(NCc1ccc(Cl)cc1)C1CCN(c2nn3cc(-c4ccc(F)cc4)nc3s2)CC1 | -12% | -14% |
| COc1cc(C(=O)c2ccccc2C(=O)O)c(OC)c2c1CCCC2 | -16% | -10% |
| CCCCc1c(-c2cccc(Br)c2)ncn1CCc1ccccc1OC | -16% | -17% |
| Cc1ccc(C(=O)n2c(-c3ccccc3)cnc2SCC(=O)Nc2ccc(C)cc2C)cc1 | -25% | -18% |
| O=C1NN(c2ccc(Cl)c(Cl)c2)C(=O)/C1=C/c1ccc(-c2ccccc2C(=O)O)o1 | -12% | 3% |
| Oc1ccc(COCc2ccccc2)c2cccnc12 | -23% | ? |
| OCCC1CN(Cc2ccc3nonc3c2)CCN1Cc1ccsc1 (centres undefined) | 0% | -1% |
| COc1ccc(CNC(=O)Cn2c(=O)oc3cc(S(=O)(=O)NCc4ccccc4)ccc32)cc1 | ? | -27% |
| CC(C)(O)C#Cc1ccc(C(=O)NCCC(=O)O)s1 | i | -5% |
| Cc1ccc(OCC(=O)NC2=NCCS2)cc1 | . | 1% |
| CC(C)(C)c1cc(N2CCOCC2)n2ncc(-c3ccc(Cl)cc3)c2n1 | -24% | -6% |
| COc1ccc(OC)c(NC(=O)CN(C)S(=O)(=O)c2ccc3nc(C)sc3c2)c1 | -18% | -9% |
| Cc1cccc(C)c1Nc1nnc(SC(C)C(=O)Nc2c(C)n(C)n(-c3ccccc3)c2=O)s1 (centres undefined) | i | -2% |
| CC(C)NC(=O)C1=NN(c2ccccc2)C(=O)CC1 | 1% | -4% |
| O=[N+]([O-])c1cccc(N(CC2CO2)S(=O)(=O)c2ccccc2)c1 (centres undefined) | -23% | -10% |
| CCOC(=O)C1CCCCN1Cc1ccccc1C(F)(F)F (centres undefined) | -14% | -9% |
| COc1ccccc1NC(=O)c1oc2ccccc2c1NC(=O)COc1ccccc1OC | -17% | -17% |
| Cc1ccccc1NC(=O)CSc1nnc2ccc(-c3cccnc3)nn12 | -23% | -14% |
| O=C(NC1CCCC1)c1ccc(CSc2nc3cccnc3n2Cc2ccccc2)cc1 | i | -14% |
| CC(=O)c1ccc(O)c(CSC2=NCCS2)c1 | i | -2% |
| NC(=O)c1ccccc1[N+](=O)[O-] | i | -8% |
| O=C(N/N=C/c1ccc[nH]1)c1cccc([N+](=O)[O-])c1 | -14% | -15% |
| CC(C)C(OC(=O)c1cccs1)C(=O)NCc1ccc(F)cc1 (centres undefined) | -25% | -18% |
| COc1ccc(S(=O)(=O)c2c(O)c(C)cc(NS(=O)(=O)c3ccc(Cl)cc3)c2C(C)C)cc1 | -5% | -7% |
| O=C(Cn1ncc2c([nH]c3ccccc32)c1=O)NCCc1ccccc1 | -19%[7.34 µM] | ? |
| COc1cccc(C(=O)OCC(=O)Nc2ccc3c(c2)OCCO3)c1 | i | -4% |
| C/C(=N\NC(=O)c1nn(C)c(C)c1Br)c1ccc(NC(=O)c2ccoc2C)cc1 | -12% | -7% |
| O=S(=O)(Oc1ccccc1N1CCCCC1)c1ccccc1 | -14% | -10% |
| Nn1c(Cc2cccc3ccccc23)nnc1SCc1ccccc1 | 0% | -15% |
| CC(C)CCNC(=O)c1ccc(CSCc2cccc(F)c2)o1 | -11% | -9% |
| Cc1ccc(S(=O)(=O)N2CCN(S(=O)(=O)N(C)C)CC2)c(C)c1 | -1% | -15% |
| CCOCCCNC(=O)C1CCN(S(=O)(=O)N2CC(C)CC(C)C2)CC1 (centres undefined) | -1% | -10% |
| CCc1ccc(-n2c(=O)c3c(C)c(C)sc3n(CC(=O)NCc3ccc(C)cc3)c2=O)cc1 | -4% | 5% |
| Cc1cc(C(=O)CN2CCN(CC(=O)Nc3ccc(F)cc3)CC2)c(C)n1C1CC1 | i | -9% |
| Cn1nc(NC(=O)CC(C)(C)CC(=O)O)c2ccccc21 | -14% | 0% |
| N#CCSc1ccccc1NC(=O)COC(=O)C1CCN(C(=O)c2ccc(Cl)cc2)CC1 | i | -10% |
| COc1ccc(-c2nc(C)c(CCNC(=O)c3ccc(F)c(F)c3)s2)cc1 | -7% | -9% |
| COc1ccc(Br)cc1/C=C(\C(=O)O)c1ccc(S(=O)(=O)N2CCCC2)s1 | -14% | -8% |
| COc1ccccc1N1CCN(c2ccc(-c3nc(-c4ccccc4)no3)cc2[N+](=O)[O-])CC1 | 0% | 1% |
| Cc1ccc(NC(=O)COC(=O)/C=C/c2c(C)nn(-c3ccc(F)cc3)c2Cl)cc1F | -4% | -4% |
| C/C=C(\C)C(=O)NCCN1C2=NC[C@@H](Cc3ccccc3)N2C[C@@H]1Cc1ccc(OC)cc1 | -24% | -13% |
| Cc1ccc(CNC(=O)Cn2c(=O)n(-c3cccc(Cl)c3)c(=O)c3sc4ccccc4c32)cc1 | -1% | -4% |
| CC1(C)CC(C(=O)Nc2nccs2)CCO1 (centres undefined) | . | 8% |
| CCCCn1c(N)c(N(CC)C(=O)c2ccc(Cl)c(Cl)c2)c(=O)[nH]c1=O | -13% | -1% |
| COc1ccc(C(=O)NCCN2Cc3ccccc3OC(c3ccsc3)C2)c(OC)n1 (centres undefined) | -8% | 10% |
| O=C(CNc1ccccc1N1CCCC1=O)Nc1cc(Cl)ccc1-n1cncn1 | -8% | -9% |
| CCc1ccc(S(=O)(=O)c2nnn3c2nc(NC2CCCC2)c2sccc23)cc1 | -18% | -25% |
| O=[N+]([O-])c1ccccc1SNc1ccccc1 | i | -8% |
| CC(=O)Nc1nn(C)c2nc3cc(C)ccc3cc12 | . | -10% |
| COc1cccc(CN2CCC3(CC2)c2ccccc2[C@@H](NC(=O)c2ccccc2OC)[C@@H]3O)c1 | -30% | ? |
| O=C1CCCN1CC(CN1CCOCC1)Sc1nc2ccccc2c(=O)n1-c1ccccc1 (centres undefined) | -13%[1.46 µM] | -17% |
| COc1ccc2c(c1)C(CC(=O)NN)CCC2 (centres undefined) | -1% | ? |
| COc1ccccc1NC(=O)CSc1cn(CC(=O)N2CCCC2)c2ccccc12 | -6% | 0% |
| COc1ccc(CCNC(=O)Nc2ccccc2[N+](=O)[O-])cc1 | -6% | 0% |
| CCc1c(-c2cccc(Br)c2)ncn1Cc1cccc(-c2ccccc2)c1 | ? | ? |

More compounds follow:
| SMILES | Vaccinia mCherry | Vaccinia Venus |
| --- | --- | --- |
| COc1ccc(C(=O)NC2CCCCCCC2)cc1OC | -6% | -11% |
| COc1ccc(C(=O)N2CCN(c3nc(C4CC4)nc4sc(C)c(C)c34)CC2)cc1 | -7% | -5% |
| COc1cc(/C=C2/SC(=S)NC2=O)ccc1OS(=O)(=O)c1ccc(C)cc1 | -15% | -25% |
| CC(C)c1ccc(NC(=O)CCNC(=O)Cn2cnc3ccccc3c2=O)cc1 | -10% | -13% |
| CCCC/C(C)=N/NC(=O)C(=O)NCCc1ccccc1 | . | -23% |
| C[C@@H]1CN([C@H](C)CO)C(=O)c2cc(Br)cnc2O[C@H]1CN(C)C(=O)Nc1ccccc1F | i | 3% |
| CCC(c1nnnn1-c1ccc2c(c1)OCCO2)N1CCN(c2ccc(F)cc2)CC1 (centres undefined) | -23% | -20% |
| Cc1ccc(S(=O)(=O)N(CC(=O)Nc2cc(C)ccc2C)C(=O)N2CCN(C)CC2)cc1 | i | -15% |
| COc1ccccc1N1CCN(C(=O)CC(NC(=O)c2ccccc2Cl)c2ccccc2)CC1 (centres undefined) | i | -15% |
| C[C@H](O)[C@H]1CC[C@H]2[C@@H]3CCC4=CC(=O)CC[C@]4(C)[C@H]3CC[C@]12C | -6% | -19% |
| CCC[C@@H](CN1CCC[C@H]1CN1C(N)=NC[C@H]1CC(C)C)N1C[C@@H](Cc2ccccc2)N(CCCC2CCCC2)C1=N | -5% | -5% |
| CN1CCc2c(sc3nc(SCC(=O)N4CCOCC4)nc(N)c23)C1 | 9%[1.46 µM] | -5% |
| CN(C)C(=O)CSc1nnc(-c2cccnc2)n1-c1ccccc1 | -13% | -12% |
| COc1ccc(/C(C)=N/NC(=O)c2cccc(S(=O)(=O)N3CCCC3)c2)c(O)c1 | 5.6µM* | ? |
| CCNC(=O)C1(C)CCCCN1Cc1ccc(C#N)cc1 (centres undefined) | 0% | -10% |
| COc1ccc(CCNC(=O)C/C(C)=N/NC(=O)COc2ccc(C)cc2Br)cc1OC | -5% | -17% |
| O=C(CN1CCCN(S(=O)(=O)c2ccc(F)cc2)CC1)Nc1ccccc1Br | -11% | -4% |
| CC(C)(C)c1ccc(C(=O)Nc2nnc3n2CCS3)cc1 | -17% | -15% |
| CC(C)(C)c1ccc(S(=O)(=O)N2CCN(C(=O)c3ccc4c(c3)C(=O)N(Cc3ccncc3)C4=O)CC2)cc1 | i | -10% |
| CNC(=O)c1cc(NC(=O)N(CCC#N)CCN(C(=O)NC(Cc2ccccc2)C(=O)NC(CC(C)C)C(=O)NC)c2ccccc2)ccc1OC (centres undefined) | -16% | -28% |
| Cc1c(C)c2ccc(OC(C)C(=O)NC3CCN(Cc4ccccc4)CC3)cc2oc1=O (centres undefined) | i | -27% |
| COc1cc(/C=N/n2nnnc2N)ccc1OC(C)C | i | -1% |
| COc1ccc2c(CNCCc3ccco3)c(C(=O)O)n(Cc3ccc(F)cc3)c2c1 | -7% | -6% |
| Cc1ccc(NS(=O)(=O)c2ccc(CCC(=O)N3CCOCC3)cc2)cc1 | . | -12% |
| O=c1[nH]c(/C(Cl)=C/c2cc(Cl)ccc2O)nc2cc(Cl)ccc12 | -10% | -16% |
| CCOC(=O)C1(CCOc2ccccc2)CCN(Cc2cccn2-c2cccnc2)CC1 | -1% | -20% |
| CCN(CC)CCn1cnc2c([nH]c3cccc(OC)c32)c1=O | . | -10% |
| Cc1ccccc1C(=O)OCC(=O)NCC1COc2ccccc2O1 (centres undefined) | -18% | -10% |
| O=C(/C=C/c1cccc([N+](=O)[O-])c1)NCCSCc1ccco1 | -13% | -12% |
| O=C(C1CCCN(c2ncnc3c2nc2n3CCCCC2)C1)N1CCN(c2ccccc2F)CC1 (centres undefined) | i | -12% |
| Cc1cc(C)n(-c2nncc(-c3ccccc3)n2)n1 | -16%[1.46 µM] | -20% |
| CC(=NNC(=S)N1CCCCCC1)c1cccc2cccnc12 | ? | ? |

Entries above with a COOH group:
| SMILES | Vaccinia mCherry | Vaccinia Venus |
| --- | --- | --- |
| COc1cc(C(=O)c2ccccc2C(=O)O)c(OC)c2c1CCCC2 | -16% | -10% |
| O=C1NN(c2ccc(Cl)c(Cl)c2)C(=O)/C1=C/c1ccc(-c2ccccc2C(=O)O)o1 | -12% | 3% |
| CC(C)(O)C#Cc1ccc(C(=O)NCCC(=O)O)s1 | i | -5% |
| Cn1nc(NC(=O)CC(C)(C)CC(=O)O)c2ccccc21 | -14% | 0% |
| COc1ccc(Br)cc1/C=C(\C(=O)O)c1ccc(S(=O)(=O)N2CCCC2)s1 | -14% | -8% |
| COc1ccc2c(CNCCc3ccco3)c(C(=O)O)n(Cc3ccc(F)cc3)c2c1 | -7% | -6% |

(next part)
| SMILES | Vaccinia mCherry | Vaccinia Venus |
| --- | --- | --- |
| O=S(=O)(c1cccc2cccnc12)n1cnc2ccccc21 | . | ? |
| O=C(CNC(=O)c1cc(Cl)cc([N+](=O)[O-])c1)OCC(=O)N1CCCCC1 | -9% | -6% |
| Cc1ccc(-c2cnc(NC(=O)CCC(=O)N(C)Cc3ccccc3)n2C)cc1 | -1% | -28% |
| CC(C)(C)c1nc(SCC(=O)c2ccccc2)c2ccccc2n1 | -22% | -9% |
| CC(C)CCSc1nc2ccccc2[nH]1 | -25% | -18% |
| CC(=O)Oc1ccc2c(C)c(CC(=O)N3CCN(C(=O)C4COc5ccccc5O4)CC3)c(=O)oc2c1C (centres undefined) | -29% | -23% |
| Cc1ccc(S(=O)(=O)C(CNC(=O)C(=O)NCCc2ccc(Cl)cc2)c2ccco2)cc1 (centres undefined) | ? | -24% |
| CCn1c(SCC(=O)Nc2ccc(S(N)(=O)=O)cc2)nnc1-c1ccccc1OC | i | -12% |
| CCc1noc(C)c1C(=O)N1CCCC(Nc2cccc(F)c2)C1 (centres undefined) | -7% | -17% |
| CCOc1cc(CNc2ccc3c(c2)OCCO3)cc(Br)c1OC | ? | ? |
| COc1ccc(CN2CCCN(S(=O)(=O)c3ccc(Br)cc3)CC2)cc1 | -6% | -10% |
| CCN(CC(=O)Nc1ccc(OC)cc1)C(=O)c1ccc(OCc2c(C)noc2C)cc1 | -13% | -6% |
| CCCn1c(N)c(C(=O)CSc2nc3ccccc3c(=O)n2-c2ccc(OC)cc2)c(=O)[nH]c1=O | -26% | -10% |
| CCOc1ccccc1CNn1cnnc1SCC(=O)NC(C)(C)C | -27% | -6% |
| Fc1ccc(N2CCN(c3nc(-c4ccco4)cc(C(F)(F)F)n3)CC2)cc1 | -6% | -7% |
| CCOC(=O)c1sc(N)c(C#N)c1CSc1nc2ccc(OCC)cc2[nH]1 | ? | -23% |
| CC1CCCC(NC(=O)CN2C(=O)NC(c3ccccc3)(c3ccccc3)C2=O)C1C (centres undefined) | ? | -23% |
| CC(=O)NNC(=O)N1Cc2ccccc2Oc2ccc(Cl)cc21 | 19% | -9%&-12% |
| CCc1nnc(N/N=C/c2ccccc2F)n1N | ? | ? |
| O=c1[nH]nc(Cc2ccc(Cl)cc2Cl)c2ccccc12 | i | -24% |
| C[C@@H]1CN(Cc2nc(-c3cccs3)no2)C[C@H](C)O1 | -2% | 2% |
